Screens from PubChem.
B2AR ag – agonists of human beta-2 adrenergic receptor inducing internalization; P07550; Am2.2-beta2AR cells, FAP receptor internalization, flow cytometry; reference of the scale not given here; response, % (no concentration beside the values); actives 0.43% (n = 340,000); AID 504454;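 active = response above a set limit, near 3 SD of response in nonfluorescent compounds, cut at about 42% in these data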;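 note: stock transfer was 100 nL into about 11 µL; a reference agonist was the positive control; negative values mostly stem from fluorescent compounds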
Target sequence (P07550 whole entry, looked up): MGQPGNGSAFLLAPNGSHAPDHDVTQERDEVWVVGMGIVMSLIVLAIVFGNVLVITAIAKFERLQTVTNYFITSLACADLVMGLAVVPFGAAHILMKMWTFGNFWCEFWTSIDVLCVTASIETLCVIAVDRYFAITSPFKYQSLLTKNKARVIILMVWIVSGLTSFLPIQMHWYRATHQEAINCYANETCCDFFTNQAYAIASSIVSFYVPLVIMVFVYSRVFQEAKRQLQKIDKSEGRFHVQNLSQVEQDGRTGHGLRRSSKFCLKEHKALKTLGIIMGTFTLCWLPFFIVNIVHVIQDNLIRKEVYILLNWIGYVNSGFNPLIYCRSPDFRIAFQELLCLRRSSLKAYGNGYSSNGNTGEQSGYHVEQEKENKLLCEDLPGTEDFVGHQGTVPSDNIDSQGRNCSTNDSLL
Ecoli rRNA inh – inhibits bacterial ribosomal RNA function over humanized ribosomes. E. coli WT GFP vs humanized-ribosome RFP mutants, fluorescence, 24 h; active compounds read low; DMSO median 0, no signal -100. GFP signal change (wild-type ribosome), % (concentration not given with the values). actives 1.6% (n = 350,000). AID 720706;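 active = significant combined selectivity score with lowered wild-type GFP, culture density cut under 30%, mutant RFP and density less affected; inactive = any of these conditions unmet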; note: one replicate is shown; some compounds called inactive have numbers as strong as hits
A1 inh – inhibitors of the anti-apoptotic protein A1, read as caspase activation. MEF A1-2A-BIM cells, Caspase-Glo 3/7 luminescence, 3 h; percent of clofoctol response, vehicle zero. caspase activation, % (test concentration not listed). actives 0.066% (n = 330,000). AID 2462;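 active = over half of replicate activation scores above 10%, or exactly half above 10 with the replicate mean above 10; inconclusive = replicate mean below 10 yet half the replicates above 10; inactive = over half of replicates below 10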;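 note: wells of about 30 µL received 50 nL stock; many hits fall short of the cut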
Beta apoptosis – beta cell apoptosis inhibition; INS-1E cytokine-induced death, ATP luminescence, 48 h; percent of positive-control rescue, neutral wells zero; protection from apoptosis, % (concentration not given with the values); actives 0.8% (n = 300,000); AID 435005;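 active = all replicates at 75% or more, or half of them and the mean; inconclusive = half reach 75% but not the mean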;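 note: 0% = cytokine-treated negative control wells and 100% = positive control rescue; higher means more ATP so stronger rescue from cytokine killing; wells of about 40 µL received 100 nL stock; the first replicate is given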
Calb FLC – affects C. albicans growth with fluconazole. C. albicans CaCi-2 (fluconazole-resistant clinical isolate) + fluconazole, Alamar Blue growth, 48 h. growth inhibition, % (no concentration beside the values). actives 0.57% (n = 300,000). AID 1979;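 active = most replicates above 75%; inconclusive = exactly half above 75%; inactive = most below 75%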;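 note: all wells also contain fluconazole at 8 µg/ml as a sub-toxic cotreatment; 0% = median of DMSO wells and 100% = median of geldanamycin control wells; wells of about 8 µL received 7.5 nL stock; the first replicate is given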
ALR H2O2 inh – human ALR oxidase inhibition via reduced H2O2 | P55789 | purified ALR, DTT oxidation, H2O2 HRP-luminol luminescence | inhibition, % (concentration not given with the values) | actives 3.8% (n = 290,000);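 active = mean and each replicate at 75% or more; inconclusive = only one of the two met; inactive = neither met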;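 note: stock transfer was 7.5 nL into about 7.5 µL; 0% = neutral wells and 100% = wells with inactivated enzyme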
Target sequence (P55789 whole entry, looked up): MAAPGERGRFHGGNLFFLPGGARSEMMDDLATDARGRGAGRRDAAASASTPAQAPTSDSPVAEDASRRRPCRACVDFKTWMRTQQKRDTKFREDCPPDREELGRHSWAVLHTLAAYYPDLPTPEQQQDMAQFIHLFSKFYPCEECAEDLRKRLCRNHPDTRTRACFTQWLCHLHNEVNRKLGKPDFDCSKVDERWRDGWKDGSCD
T cruzi repl – T. cruzi replication inhibition; inhibition, % (no concentration beside the values); AID 1885; T. cruzi beta-gal in NIH3T3, luminescence, 90 h; actives 1.4% (n = 300,000);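 active = mean inhibition across valid replicates above about 55%, limit read from the data; inconclusive = mean below that limit but half or more replicates reach it; inactive = mean below it, under half of replicates reach it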;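 note: signal also drops with host cell toxicity which is not excluded here; 0% = plate median of DMSO wells and 100% = zero luminescence signal; higher percent means less beta-gal luminescence so fewer parasites; stock transfer was 50 nL into about 50 µL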
LANA-H2B inh – blocks KSHV LANA binding to histone H2A/H2B. cell-free LANA-H2A/H2B peptide, fluorescence polarization. actives 0.6% (n = 320,000). AID 2629. inhibition, % (concentration not given with the values); in the data active = inhibition mostly above about 10%, no sharp cut-off; inactive = mostly below about 6.7%;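 note: stock transfer was 7.5 nL into about 10 µL; 0% = median of vehicle wells and 100% = median of positive control wells; one replicate is shown; the record names a cut of 25% in any replicate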
Ecoli rRNA inh OD600 – also measured in Ecoli rRNA inh; calls as there; OD600 change, %; measured here: OD600 growth;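 optical density of the mix in the first replicate; 0 = DMSO median and -100 = no signal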
Ecoli rRNA inh RFP – second read-out of Ecoli rRNA inh, no call of its own (marks repeat the call); RFP signal change, %; measured here: RFP humanized mutant strains;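 first replicate; 0 = DMSO median and -100 = no signal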
* marks the source's active call; other numbers are inactive results; ? = inconclusive; . = not tested or not shown.

SMILES	B2AR ag	Ecoli rRNA inh	Ecoli rRNA inh OD600	Ecoli rRNA inh RFP	A1 inh	Beta apoptosis	Calb FLC	ALR H2O2 inh	T cruzi repl	LANA-H2B inh
Cc1ccc(S(=O)(=O)/C(C#N)=C/c2c(N3CCN(Cc4ccccc4)CC3)nc3ccccn3c2=O)cc1	-8.2	4.2	2.5	1.0	0.7	-0.4	0.8	-1.9	-28.6	-3.7
Cc1ccc(S(=O)(=O)N2CCOCC2)cc1C(=O)N1CCN(S(=O)(=O)c2cccc(F)c2)CC1	17.0	1.5	4.7	0.1	-1.9	-0.9	.	-2.5	.	1.1
COc1ccc(NC(=O)COC(=O)C2CCN(S(=O)(=O)c3cccs3)CC2)cc1	-8.7	0.2	1.4	8.2	-0.4	-1.9	5.6	-1.1	-0.7	2.0
CCC1(c2ccccc2)NC(=O)N(CC(=O)Nc2nnc(C3CC3)s2)C1=O (configuration not stated)	4.3	0.2	1.4	1.8	0.6	-9.1	0.8	-0.2	3.8	1.1
CC(C)(NO)/C(=N/O)c1cccs1	13.8	.	.	.	0.4	-4.0	32.9	21.1	-19.9	8.4
COc1cc(/C=N/NC2=NS(=O)(=O)c3ccccc32)cc(OC)c1OC	-1.3	2.0	-0.3	3.2	-0.6	-4.1	-12.6	5.6	-6.2	0.0
CCCOc1ccc(N2C(=O)CC(N3CCN(c4ccc([N+](=O)[O-])cc4)CC3)C2=O)cc1 (configuration not stated)	-11.7	5.3	2.2	3.6	-0.4	-0.1	0.2	-1.0	3.2	1.8
COc1ccc(NC(=O)C2CC2)cc1S(=O)(=O)N1CCOCC1	-6.6	.	.	.	1.2	0.2	.	-2.3	.	1.0
S=c1[nH]c2cc(Cl)ccc2s1	-2.3	-25.5*	-14.7*	-4.4*	-2.0	.	-3.5	98.2*	-29.2	1.9
O=C(c1ccc2ccccc2c1)N1CCN(c2ccccn2)CC1	-1.4	0.7	-5.7	1.5	0.0	.	?	-7.6	-9.4	1.8
COC(=O)C1Cc2ccccc2CN1S(=O)(=O)c1ccc(C)cc1 (configuration not stated)	0.4	-29.4	-33.6	-5.3	1.3	.	3.8	-20.9	-2.0	0.4
CCOc1ccc(NC(=O)CC2SC(=O)N(c3ccccc3)C2=O)cc1 (configuration not stated)	-1.0	-2.7	8.8	2.4	-0.5	-11.9	4.3	49.2	-6.1	-0.2
Cc1cccc(N(CC(=O)NC2CCCC2)C(=O)c2nsc(Cl)c2Cl)c1C	0.7	-43.8	-68.2	-4.9	0.0	4.1	5.2	-4.1	19.3	0.3
Cc1ccc(C(=O)N/C(=C/c2ccccc2F)C(=O)NCCCn2ccnc2)cc1	-12.2	1.8	5.3	-0.1	-0.4	-2.4	-2.2	-1.9	-1.5	-0.3
COc1ccc(CN2CCN(CC(=O)Nc3ccccc3C(=O)NC3CC3)CC2)cc1F	-2.3	4.1	3.8	-0.3	0.0	1.4	.	-1.9	.	-1.0
CC(=C/c1ccccc1)/C=N/NC(=O)c1cc(C)oc1C	-0.3	8.7	-4.8	-8.7	-6.0	5.4	9.2	2.8	3.6	0.9
Cn1c(-c2ccc(Cl)nc2)nc2cc(Cl)ccc21	-6.0	-3.9	2.8	-0.7	-0.8	7.7	2.3	.	1.1	3.2
COc1ccc(-c2nn(-c3ccccc3)cc2C(=O)NCCCn2ccnc2)cc1	-25.8	-4.9	-4.6	-5.4	0.6	-7.1	17.9	-4.2	1.1	-0.9
Cc1nc(C)c(-c2csc(NCc3ccco3)n2)s1	-10.2	16.6	3.2	5.5	-0.1	-3.3	-8.6	7.7	9.5	11.5
CCc1cccc(NC(=O)c2ccc(Cn3nc(C)cc3C)o2)c1	-2.3	.	.	.	0.1	-7.0	25.7	-4.3	7.9	-0.4
COC(=O)c1ccccc1NC(=O)CCn1c(=O)oc2ccccc21	-2.6	-0.9	-0.3	3.0	0.6	0.8	4.0	6.1	1.6	7.1
COc1ccc(C(=O)NC(=S)NNC(=O)c2ccc3ccccc3n2)cc1	8.2	-3.4	-3.2	-3.2	-0.4	-17.8	108.1*	-1.1	50.6	0.9
COc1cccc(NC(=O)COC(=O)COc2cccc3c2OC(C)(C)C3)c1	3.3	10.6	8.2	3.3	-0.2	-5.2	-3.6	1.5	-12.4	1.1
O=C(COc1ccc2ccccc2c1)N1c2ccccc2Sc2ccccc21	-2.4	.	.	.	0.8	4.2	-3.6	-14.2	30.2	0.2
O=C(COC(=O)c1ccc(O)cc1)Nc1cc(S(=O)(=O)N2CCOCC2)ccc1Cl	10.2	4.5	10.7	1.2	-1.7	4.3	.	-3.7	.	-0.5

Next part:
SMILES	B2AR ag	Ecoli rRNA inh	Ecoli rRNA inh OD600	Ecoli rRNA inh RFP	A1 inh	Beta apoptosis	Calb FLC	ALR H2O2 inh	T cruzi repl	LANA-H2B inh
O=C(NCc1ccccc1)C(c1cccs1)N(C(=O)c1csnn1)C1CC1 (configuration not stated)	5.2	.	.	.	-0.7	2.4	-33.3	-12.1	3.0	-4.8
Cc1ccc2c(c1)cc(CN(Cc1ccco1)S(=O)(=O)c1ccccc1)c1nnnn12	-53.5	.	.	.	1.0	9.3	-4.5	.	20.3	-4.0
Cc1ccc(NC(=O)CCC(=O)N2CCOc3ccccc32)c(Cl)c1	2.6	-2.0	0.8	-2.1	-0.9	-5.3	-0.3	-6.9	-2.8	-1.4
CCN(CC)c1ccc(C(=O)OCC(=O)Nc2cccc(S(=O)(=O)NC3=NCCCCC3)c2)cc1	9.3	.	.	.	0.7	-0.3	-10.1	-3.2	8.2	-6.3
COc1ccc(CC(=O)Nc2ccc(OC)c(NC(=O)c3ccco3)c2)cc1	5.0	.	.	.	1.0	-0.4	0.3	-11.7	3.0	31.2*
CCN(CC)C(=O)c1ccc(NS(=O)(=O)c2ccc3[nH]c(=O)[nH]c3c2)cc1	9.5	6.5	9.2	0.9	0.3	-3.4	-6.3	-8.2	-3.8	2.0
COCCCNC(=O)c1c(F)c(F)c(F)c(F)c1F	-0.8	.	.	.	0.9	9.0	-10.2	-25.8	1.2	0.1
CCOC(=O)c1nn(-c2ccccc2C)c(=O)c2c(N)scc12	-2.4	-1.3	-3.6	7.2	0.0	1.2	27.9	-410.2	-14.0	0.9
COC(=O)CNC(=O)COC(=O)c1ccc(Cl)nc1	-1.4	-18.6*	10.9*	-6.6*	0.0	-0.3	-25.3	1.1	-18.4	-2.3
CCC(C)(C)NC(=O)C(c1cccn1C)N(C(=O)Cn1nnc2ccccc21)c1ccc(NC(C)=O)cc1 (configuration not stated)	-20.2	-0.2	-2.9	2.4	-0.1	.	-3.4	3.5	6.7	5.6
CCCOc1ccc(N2C(=O)C/C(=C\c3ccccc3)C2=O)cc1	3.9	10.0	4.3	-1.0	0.7	5.5	2.6	-0.9	-32.7	-8.4
CC1NC(=O)NC1CCCCCC(=O)NCCc1ccccc1 (configuration not stated)	3.0	15.8	3.9	-0.2	0.1	9.3	?	-11.4	20.9	2.8
N#Cc1nc(COc2ccccc2Cl)oc1N1CCCCCC1	-8.2	-1.9	-0.9	1.0	.	.	5.4	.	7.0	.
COC(=O)c1cn(NC(=O)C2CCCCC2)c(=O)c2ccccc12	1.3	.	.	.	0.6	-0.7	-2.4	0.9	-4.2	-1.3
CC(=O)N(CN1C(=O)C2CC=CCC2C1=O)c1cccc(Cl)c1 (configuration not stated)	-0.1	.	.	.	0.1	1.9	-4.7	-2.9	-2.7	3.8
CCOC(=O)CCP(=O)(O)C(O)(c1ccccc1)c1ccccc1	4.1	.	.	.	-0.6	-4.1	0.4	1.8	-5.5	0.3
O=C(CN1CCN(Cc2ccccc2)CC1)N/N=C/c1ccc(Br)s1	2.1	0.1	1.9	4.2	1.2	.	-12.4	3.3	2.4	-2.5
CC1=NN(c2ccccc2)C(=O)/C1=C\c1cc(C)n(-c2cccnc2)c1C	-5.4	23.0	4.0	2.9	0.2	-5.1	0.6	-11.0	-3.8	3.1
c1ccc(CSc2nnc(-c3cccs3)o2)cc1	1.7	.	.	.	-1.5	.	-24.0	-3.4	5.0	3.9
CCc1nnc(NC(=O)c2cc(S(=O)(=O)N3CCCCC3)ccc2N2CCOCC2)s1	-4.7	1.2	-12.4	-2.8	0.5	3.2	-5.2	-27.4	5.5	2.1
CCN(CC)S(=O)(=O)c1cc(NC(=O)Cn2cnc3ccccc3c2=O)ccc1C	4.3	.	.	.	-0.2	11.9	0.2	-2.2	7.5	-0.4
C#CCOCCOCCOCCNc1nc(N2CCN(C(=O)CCCCCCCCCCNC(=O)[C@@H]([C@H](C)O)n3cc(C)nn3)CC2)nc(N2CCN(C(=O)CCCCCCCCCCNC(=O)[C@@H]([C@H](C)O)n3cc(C)nn3)CC2)n1	15.3	14.2	8.5	6.8	0.4	42.9	.	-4.1	.	2.0
CCOC(=O)N1CCN(C(=O)c2ccc(OC)c(S(=O)(=O)N3CCOCC3)c2)CC1	-0.9	20.4	10.6	0.3	-0.4	-1.1	-8.2	-3.4	6.9	-1.0
CCCC(=O)NC(NC(=S)Nc1ccc(S(N)(=O)=O)cc1)C(Cl)(Cl)Cl (configuration not stated)	-0.6	.	.	.	0.5	-6.1	2.5	32.1	-9.2	-3.4
O=C(CN1CCN(CC(=O)Nc2ccc(F)cc2)CC1)NCC1(N2CCOCC2)CCCCC1	0.6	5.0	14.2	-2.1	0.6	2.9	.	2.7	.	-4.7

The list goes on:
SMILES	B2AR ag	Ecoli rRNA inh	Ecoli rRNA inh OD600	Ecoli rRNA inh RFP	A1 inh	Beta apoptosis	Calb FLC	ALR H2O2 inh	T cruzi repl	LANA-H2B inh
COc1ccccc1-n1nnnc1SC(C)C(=O)NC1CCCC1 (configuration not stated)	2.2	6.6	7.2	0.7	-0.3	2.2	11.4	-0.3	-14.3	1.7
Cc1ccc(OCC(=O)NCCS(=O)(=O)N2CCN(c3ccccc3)CC2)cc1	-2.6	4.0	8.8	1.1	-0.5	-0.7	4.3	1.6	-0.8	4.4
Cc1nn(C)cc1/C=N\NC(=O)c1csc2c1CCCC2	-4.5	2.6	5.9	0.4	-1.1	-9.7	-10.3	3.0	-7.8	7.0
CCN(CC)CCOC(=O)C1c2ccccc2Oc2ccccc21	0.0	.	.	.	1.2	-5.8	1.1	-3.1	-18.8	-1.8
COc1ccc2[nH]c(C(=O)N/N=C/c3ccccc3OC)cc2c1	6.5	-31.9	-40.9	11.0	-0.5	0.8	2.5	-11.8	-8.1	-0.9
CCn1cc(C(=O)NCCCN2CCCC(C)C2)c(=O)c2cc(S(=O)(=O)N3CCc4ccccc4C3)ccc21 (configuration not stated)	-0.6	-18.0	-47.5	55.2	0.0	-1.2	7.3	-4.8	27.2	1.7

Some of the compounds tested; count on the stated rates, not on these rows.
